Screening data deposited in PubChem by National Center for Advancing Translational Sciences (NCATS).
D2 ag: activates the human D2 dopamine receptor. P14416. DiscoveRx PathHunter D2 beta-arrestin, luminescence, 90 min; 100% = 57 uM dopamine signal. activation, % (no concentration beside the values). 360,000 compounds, 0.084% hits; in the data active = activation above about 40%; inconclusive = about 15% to 40%; inactive = below about 15%; note: compound concentration not given in the record; the text of the record calls up to 30% inactive
Target sequence (P14416 whole entry, looked up): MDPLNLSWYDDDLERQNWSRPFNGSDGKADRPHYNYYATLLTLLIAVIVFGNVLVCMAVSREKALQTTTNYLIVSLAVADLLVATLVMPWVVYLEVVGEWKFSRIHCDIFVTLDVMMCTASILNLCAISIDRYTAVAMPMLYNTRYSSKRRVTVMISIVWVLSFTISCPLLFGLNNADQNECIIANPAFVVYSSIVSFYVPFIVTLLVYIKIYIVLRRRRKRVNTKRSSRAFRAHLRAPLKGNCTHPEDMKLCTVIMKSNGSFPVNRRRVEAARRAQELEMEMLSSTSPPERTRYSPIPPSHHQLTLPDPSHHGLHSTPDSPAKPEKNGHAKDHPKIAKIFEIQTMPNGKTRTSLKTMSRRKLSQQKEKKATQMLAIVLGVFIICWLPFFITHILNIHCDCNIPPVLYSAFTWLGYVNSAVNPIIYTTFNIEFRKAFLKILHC
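Agonist mode: compounds alone added to overnight-plated D2 PathHunter cells for 90 min at 37 C, with 57 uM final dopamine (EC100) defining full response. Beta-arrestin recruitment detected by chemiluminescent reagent, read after 1 h at ambient temperature.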
PINK1 expr mod: PINK1 expression modulation. PINK1 immunofluorescence, high-content cytometry, 24 h. Potency, µM (highest dose often 76.6 µM), for inactives: top-dose activation (PINK1 increase), actives largely listed as activators. 410,000 compounds, 0.2% hits. AID 624263; active = well fitted activation curve with a large enough effect; inconclusive = small, poorly fitted or top-dose-only effect; inactive = flat fitted curve, though single readings scatter; cell line not stated here;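 note: potency is the fitted concentration of half-maximal effect; % of control where 0% means no effect; nearly all actives have a fitted effect of over 65% in size; a mitochondrial uncoupler was the plate control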
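A stable cell line was treated with compounds at 5 concentrations for 24 hours, with CCCP as control. PINK1 levels and mitochondrial localization were measured by immunofluorescence with mitochondrial, cell and nuclear markers after fixation, read by laser-scanning cytometry.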
TRPML1 ag: agonists of human TRPML1 channel. Q9GZU1. TRPML1-expressing cells, Ca2+ dye fluorescence, FDSS; host cell line not named in the record; reference of the full effect not given here. activation, % (no concentration beside the values). 410,000 compounds, 0.12% hits; in the data active = activation above about 50%; inconclusive = about 30% to 50%; inactive = below about 30%; note: 0% is about no effect; the text of the record puts the active cut at 80%
Target sequence (Q9GZU1 whole entry, looked up): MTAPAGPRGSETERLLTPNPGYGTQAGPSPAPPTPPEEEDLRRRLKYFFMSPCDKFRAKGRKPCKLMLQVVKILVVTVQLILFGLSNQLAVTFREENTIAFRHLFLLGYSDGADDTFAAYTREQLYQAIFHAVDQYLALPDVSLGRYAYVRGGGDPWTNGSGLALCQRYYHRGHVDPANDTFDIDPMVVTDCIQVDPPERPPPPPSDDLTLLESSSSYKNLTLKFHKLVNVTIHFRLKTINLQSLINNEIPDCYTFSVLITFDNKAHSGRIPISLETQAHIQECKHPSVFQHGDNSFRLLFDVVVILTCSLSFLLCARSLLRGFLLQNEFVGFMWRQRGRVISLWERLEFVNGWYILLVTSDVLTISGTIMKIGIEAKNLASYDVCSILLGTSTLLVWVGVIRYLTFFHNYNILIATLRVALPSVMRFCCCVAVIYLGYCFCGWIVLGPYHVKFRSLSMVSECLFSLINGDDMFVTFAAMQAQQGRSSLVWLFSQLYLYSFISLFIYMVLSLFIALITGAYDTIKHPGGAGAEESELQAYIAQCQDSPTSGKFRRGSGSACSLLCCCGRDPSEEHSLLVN
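Agonist activity was taken from a 110 s kinetic Ca2+ dye read on the FDSS after pinning compounds onto TRPML1-DL cells. The cells were seeded at 1,500/well with Tet inducer, incubated about 16 h, then dye-loaded at room temperature.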
CtBP-E1A blk: blocks the CtBP interaction with E1A | AlphaScreen GST-E1A/His-CtBP binding, 1536-well; hits give low values; control for the full effect not named in the record | activity change, % (test concentration not listed) | 340,000 compounds, 0.49% hits | AID 651724; in the data active means activity change below about -65%; inconclusive means about -30% to -65%; inactive means above about -30%; note: % is set by controls: 0 for no effect and ±100 for the full control effect
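Homogeneous bead-based format: GST-tagged E1A captured on glutathione donor beads, His-tagged CtBP on nickel acceptor beads; compounds precede bead addition by 2 h at 37 °C.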
D2 potentiator: human D2 receptor positive allosteric modulation; P14416; DiscoveRx D2 beta-arrestin cells, luminescence, 90 min; 100% = 57 uM dopamine signal; potentiation, % (test concentration not listed); 360,000 compounds, 0.23% hits; AID 624464; active = potentiation of 50% or more; inconclusive = 30% to 50%; inactive = 30% or less;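 note: compound concentration not given in the record; tested on top of an EC20 dose of dopamine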
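D2 cells co-treated with compound plus 50 nM dopamine (EC20) for 90 min at 37 deg C to detect potentiation. Beta-arrestin recruitment was read as enzyme-fragment luminescence after 1 h at ambient temperature. Full response was set by 57 uM dopamine.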
Six1-Eya2 inh: blocks human Six1 binding to Eya2; Q15475+O00167; AlphaScreen GST-Six1/His-Eya2 binding, biochemical; hits give low values; control for the full effect not named in the record; activity change, % (concentration not given with the values); 360,000 compounds, 0.56% hits; in the data active = activity change below about -65%; inconclusive = about -30% to -65%; inactive = above about -30%; note: % is set by controls: 0 for no effect and ±100 for the full control effect
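AlphaScreen luminescence read after one hour at 37 °C in darkness. Pin-transferred compounds met GST-Six1 and His-Eya2 protein (5X stock 250 nM/500 nM) plus glutathione donor and Ni-chelate acceptor beads (5X, 50 ug/mL).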
* marks the source's active call; other numbers are inactive results; u = inconclusive; x = not tested or not shown; & = joins results of further samples; [ ] = remark or other dose.

Values run as follows: D2 ag | PINK1 expr mod | TRPML1 ag | CtBP-E1A blk | D2 potentiator | Six1-Eya2 inh
> CCC1OC23CCCCC2C(C#N)(C(=N)O3)C1(C#N)C#N (stereo unspecified)
→ -2.0 | -0.7% | 1.3 | -3.0 | 7.3 | 3.9
> COc1cccc(NC(=O)COC(=O)c2c(F)cccc2F)c1
→ 0.8 | 0.0% | -0.5 | -5.5 | 9.9 | 2.9
> Cn1cc(Cl)c(C(=O)NC(=S)Nc2sc3c(c2C#N)CCCCC3)n1
→ -5.6 | 10.5% | 1.3 | -7.0 | -10.5 | 7.3
> COc1ccc(N/C(C)=C/C(=S)Nc2ccccc2)cc1
→ -8.9 | 0.1% | -0.4 | -1.1 | -3.3 | -23.5
> COc1ccc(OC)c(C(=O)COC(=O)c2ccccc2O)c1
→ 4.2 | x | 2.3 | 31.3 | 2.7 | 28.6
> COCc1ccc(C(=O)Nc2cccc(S(=O)(=O)N(C)c3ccccc3)c2)cc1
→ 1.3 | -1.6% | 1.0 | -0.8 | -1.5 | -2.0
> Cc1ccc2c(C)nc(Nc3nc(CSc4nc5ccccc5[nH]4)cc(=O)[nH]3)nc2c1
→ -0.2 | -0.1%[38.3 µM] | 0.5 | -11.3 | 2.7 | -17.0
> CCOc1ccc(CN2C(=O)c3ccccc3C2=O)cc1C(=O)N1CCC(C(N)=O)CC1
→ 1.4 | 5.8% | 1.8 | -0.9 | -12.7 | 14.6
> O=C(NCc1ccc(F)c(F)c1)C1Cc2c(-c3ccc4c(c3)OCO4)ccnc2O1 (stereo unspecified)
→ 1.0 | 7.8% | -0.6 | 0.3 | -17.9 | 2.2
> C/C(=N\N1C(C)CCCC1C)c1ccccc1O (stereo unspecified)
→ 0.1 | 4.4% | 0.0 | 8.3 | -1.7 | 4.7
> O=C(/C=C/c1ccc(F)cc1)N1CC[C@@]2(O)CCCC[C@H]2C1
→ -2.7 | -1.3% | -0.1 | 5.8 | -0.8 | 25.8
> Cc1ccccc1N(CC(=O)NCCSCc1ccccc1)S(C)(=O)=O
→ -3.8 | 1.3% | -0.1 | 5.1 | -1.7 | 2.9
> O=C(c1ccncc1)N1CCN(S(=O)(=O)c2cccc(C(F)(F)F)c2)CC1
→ -1.4 | 1.2% | 0.2 | -0.2 | -2.7 | 6.1
> COc1ccc2c(c1)NC(c1ccc(N(C)C)cc1)c1cccn1-2 (stereo unspecified)
→ 4.1 | 0.8% | 0.2 | 34.7 | 0.2 | 21.3
> CN(CCO)c1nc2c(c(=O)n(Cc3ccc(Cl)cc3)c(=O)n2C)n1C
→ -1.7 | 3.5% | 1.2 | -20.4 | 3.1 | -1.4

As entered above:
Result for Cc1ccccc1N(CC(=O)NCCSCc1ccccc1)S(C)(=O)=O in CtBP-E1A blk: 5.1
Result for COc1ccc(OC)c(C(=O)COC(=O)c2ccccc2O)c1 in Six1-Eya2 inh: 28.6

(further entries)
Values run as follows: D2 ag | PINK1 expr mod | TRPML1 ag | CtBP-E1A blk | D2 potentiator | Six1-Eya2 inh
> O=C(Cc1cccs1)Nc1nc(-c2ccc(F)c(F)c2)cs1
→ 3.3 | 11.2% | 0.8 | 6.2 | 0.4 | 4.3
> Cc1cc(C(=O)COC(=O)C2=COCCO2)c(C)n1-c1ccccc1
→ -1.0 | 2.7% | 0.7 | -5.7 | -6.2 | -19.1
> Cc1ccc(C(=O)COc2ccc3ccc(=O)oc3c2)cc1
→ -0.9 | 13.7% | 1.5 | 1.9 | -2.6 | 4.5
> CCOC(=O)c1ccc(NC(=O)c2cccc3c2C(=O)N(CC2CCCO2)C3)cc1 (stereo unspecified)
→ 6.7 | -0.6% | 0.8 | 5.2 | 1.1 | -2.3
> COc1ccc2c(CC(=O)OCC(=O)c3ccc(F)cc3)coc2c1
→ -2.0 | -1.7% | 4.4 | 0.5 | -11.0 | 1.9
> CN(C)c1ccc(NC(=O)Nc2nc(C(N)C3CCCCC3)cs2)cc1 (stereo unspecified)
→ 0.7 | -1.6% | 0.1 | u | -14.8 | u
> Cc1cccc(C)c1OCc1cc(C(=O)NCC2CC2)no1
→ -4.2 | -0.4% | 3.0 | 2.8 | -12.7 | 8.9
> NS(=O)(=O)c1ccc(CCNC(=S)Nc2ccc(S(N)(=O)=O)cc2)cc1
→ -1.0 | -0.2% | 1.1 | 1.1 | 4.6 | 6.6
> COc1ccc(Nc2oc(-c3ccccc3Cl)nc2C#N)cc1
→ u | 0.6% | -1.3 | -10.6 | 0.4 | -12.8
> NC(=O)c1ccc(-n2nnnc2SCC(=O)c2ccc(O)c(O)c2)cc1
→ -3.4 | 2.3% | 4.3 | u | -0.7 | -24.7
> CCOC(=O)C1=C(N)OC2=C(C(=O)CCC2)C1c1cccs1 (stereo unspecified)
→ 3.3 | x | -0.5 | 6.8 | 3.9 | 2.6
> CCOC(=O)C[C@H]1c2cc(F)ccc2S(=O)(=O)N1C(C)C
→ -1.8 | 1.7% | -0.1&-0.3 | x | -1.6 | 2.6
> O=C(CNc1ccc(F)cc1)N/N=C/c1c(O)ccc2ccccc12
→ 3.6 | -0.2% | 2.5 | u | -15.7 | -15.7
> CC(C)n1cc(C(N)=S)c(=O)n(Cc2ccccc2)c1=O
→ 3.6 | -2.1% | 1.1 | -0.9 | -0.4 | -2.2
> O=C(NC1CCCCC1)c1csnn1
→ -1.4 | -5.6% | -0.2 | 9.2 | -2.8 | -0.1

In the list so far, these contain a Cl atom:
Values run as follows: D2 ag | PINK1 expr mod | TRPML1 ag | CtBP-E1A blk | D2 potentiator | Six1-Eya2 inh
> Cn1cc(Cl)c(C(=O)NC(=S)Nc2sc3c(c2C#N)CCCCC3)n1
→ -5.6 | 10.5% | 1.3 | -7.0 | -10.5 | 7.3
> CN(CCO)c1nc2c(c(=O)n(Cc3ccc(Cl)cc3)c(=O)n2C)n1C
→ -1.7 | 3.5% | 1.2 | -20.4 | 3.1 | -1.4
> COc1ccc(Nc2oc(-c3ccccc3Cl)nc2C#N)cc1
→ u | 0.6% | -1.3 | -10.6 | 0.4 | -12.8

More results follow.
Values run as follows: D2 ag | PINK1 expr mod | TRPML1 ag | CtBP-E1A blk | D2 potentiator | Six1-Eya2 inh
> O=S(=O)(c1ccc(F)cc1)N1CCN(CCc2ccccc2)CC1
→ -2.6 | -1.0% | -0.2 | 0.5 | -11.1 | 0.8
> CCOc1ccc(Br)cc1S(=O)(=O)N1CCCN(C)CC1
→ -0.3 | -3.7% | 0.5 | -22.2 | -5.0 | 11.8
> Cc1c(C)c2c(OCC(=O)NCc3ccncc3)cc3c(c2oc1=O)CCC(C)(C)O3
→ 4.2 | 0.5% | x | 11.2 | -6.1 | 5.7
> O=C(COC(=O)COc1ccc(Br)cc1)Nc1cccnc1Cl
→ 3.7 | -0.9% | -1.5 | x | -0.3 | 2.3
> CN(C)S(=O)(=O)c1ccc(NC(=O)Cn2nc(-c3ccc4c(c3)OCCO4)ccc2=O)cc1
→ -6.1 | 5.3% | 0.1 | 1.6 | -6.3 | 1.4
> Cc1cccc(N2CC(C(=O)Nc3ccc4c(c3)OCO4)CC2=O)c1C (stereo unspecified)
→ -1.1 | -0.8% | -0.7 | -2.3 | -3.7 | 0.4
> Cn1ncc(C#N)c1NC(=O)C1CC(c2ccc(Cl)c(Cl)c2)=NO1 (stereo unspecified)
→ -1.0 | -2.2% | 0.0 | -0.3 | 5.9 | -1.9
> COc1cccc(C(=O)NCCS(=O)(=O)N(C)Cc2ccccc2)c1
→ -2.2 | -2.9% | -0.9 | 8.9 | -11.2 | 9.0
> COc1cc(C(=O)NC2CCCCCCC2)cc(OC)c1OC
→ -7.4 | 3.5% | 3.1 | 2.9 | -4.7 | 4.2
> CCCCCCCCc1nnc(N)s1
→ 1.5 | -0.9% | 0.1 | -2.9 | -0.8 | -2.9
> N/C(=N\OC(=O)CCCOc1ccccc1)c1ccccn1
→ 1.7 | 0.9% | -0.4 | 0.0 | -1.0 | 1.3
> COC(=O)c1ccccc1NC(=O)CSc1nnc(-c2ccoc2C)n1C
→ -1.3 | 0.7% | -0.8 | -1.8 | 6.9 | -0.9
> CCc1cc(C(=O)N2CCCC(N3CCN(c4cccc(C(F)(F)F)c4)CC3)C2)n(C)n1 (stereo unspecified)
→ -0.2 | 0.0% | 1.6 | -9.4 | -18.3 | -8.9
> CS(=O)(=O)N(CC(=O)NCc1ccc2c(c1)OCO2)c1ccccc1
→ -2.8 | -4.3% | 3.8 | 5.1 | -11.5 | 0.0
> O=C(Nc1ccc(C(=O)O)cc1)/C(=C\c1ccc(F)cc1)NC(=O)c1ccco1
→ -0.4 | -0.4% | -0.3 | 0.0 | 1.0 | 6.2

2 of the compounds above, in CSV form.
SMILES,D2 ag,PINK1 expr mod,TRPML1 ag,CtBP-E1A blk,D2 potentiator,Six1-Eya2 inh
Cc1c(C)c2c(OCC(=O)NCc3ccncc3)cc3c(c2oc1=O)CCC(C)(C)O3,4.2,0.5%,x,11.2,-6.1,5.7
O=C(COC(=O)COc1ccc(Br)cc1)Nc1cccnc1Cl,3.7,-0.9%,-1.5,x,-0.3,2.3

Going on with the list.
Values run as follows: D2 ag | PINK1 expr mod | TRPML1 ag | CtBP-E1A blk | D2 potentiator | Six1-Eya2 inh
> Cc1cccc(OCCn2c(=O)n(C)c3ccccc32)c1
→ 2.7 | 2.4% | 0.2 | 11.2 | -3.1 | -2.2
> CCN(CC)CCOC(=O)C12CC3CC(CC(C3)C1)C2
→ -6.2 | -0.7% | -1.0 | -0.3 | -30.0 | -3.9
> CCN(C(=O)COC(=O)/C=C/c1ccc(O)c(OC)c1)C1CCS(=O)(=O)C1 (stereo unspecified)
→ -1.3 | -2.8% | -0.5 | 6.6 | 3.1 | -5.3
> CCN(C(=O)c1cccc(Br)c1)C1CCS(=O)(=O)C1 (stereo unspecified)
→ 1.6 | 2.6% | 0.4 | 3.8 | -0.4 | 7.1
> O=C(Cn1cc(C(F)(F)F)ccc1=O)OCC(=O)c1ccc[nH]1
→ -0.4 | -2.0% | 0.5 | 0.0 | -8.9 | 10.7
> Cc1ccc(S(=O)(=O)n2nc(OC(=O)c3c(-c4ccccc4Cl)noc3C)cc2N)cc1
→ -2.1 | 2.0% | 0.3 | -0.1 | -1.7 | -21.5
> CCNCCNc1ccc(Cl)cc1[N+](=O)[O-]
→ -3.1 | -0.4% | 0.0 | 0.0 | -37.0 | -11.2
> Cc1ccc(-c2nc3ncccc3o2)cc1NC(=O)c1sc2ccccc2c1Cl
→ -0.7 | 22.0%[38.3 µM] | -0.4 | -1.1 | -5.5 | -0.9
> CCc1nnc(N2C(=O)c3ccccc3C2(O)c2ccccc2)s1 (stereo unspecified)
→ -1.7 | 1.0% | 0.7 | 5.1 | -2.1 | -1.2
> CCCCc1ccc(NC(=O)OC)cc1
→ -5.1 | 9.5% | 0.1 | 5.9 | 2.5 | 9.7
> Cc1cc(=O)oc2c3c(cc(OCC(=O)NCc4ccncc4)c12)OC(C)(C)CC3
→ -3.5 | 0.3% | 0.2 | 2.5 | -3.2 | -5.4
> O=C(CCS(=O)(=O)c1ccc(F)cc1)N1CCOCC1
→ -3.1 | 5.6% | -0.2 | 6.0 | -5.0 | -6.0
> NC(=O)C1CCN(CC(=O)Nc2nc(-c3ccccc3)cs2)CC1
→ 1.5 | -0.7% | -0.3 | x | -2.4 | 2.3
> CCc1[nH]nc(C(=O)NC2CCCc3c2cnn3-c2cc(C)cc(C)c2)c1C (stereo unspecified)
→ 1.8 | 2.6% | 0.4 | -1.2 | 17.6 | -1.8
